Assay outcomes as filed in PubChem BioAssay.
Mtb bLac sens: beta-lactam sensitization of Mtb H37Rv | M. tuberculosis H37Rv growth with meropenem, percent inhibition; hits of this screen are not shown here | inhibition, % at 25 µM | 0.27% of 330,000 active;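 active = about 74% or more and at least 40 points above the plate without the antibiotic, then above 30% in a dose series; inconclusive = first-round hits that could not be retested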;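 also: growth measured after seven days incubation then overnight dye step; 0% = bacteria only wells and 100% = bacteria with antibiotic; twin plates without the antibiotic show which effects depend on it; some results filed as inactive read as strong as hits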
An asterisk follows results filed as active; ? = inconclusive.

Structure | Mtb bLac sens
Cc1nn(Cc2ccccc2)c(C)c1CNC(=O)[C@H](C)N=C1NS(=O)(=O)c2ccccc21 | 11.3
COc1cc(NC(=O)CCCn2c(=O)oc3ccccc32)cc(OC)c1 | -2.1
COc1ccccc1CNC(=O)Cn1nc(C(F)(F)F)cc1C | -4.0
C[C@@]12CCC3[C@@](CCC4[C@@]3(C)CCC[C@@]4(C)C(=O)N3CCOCC3)(CC1=O)C2 (stereo partly drawn) | -3.0
O=C(CCC(=O)c1cccs1)NNC(=O)c1ccc(Cl)cc1 | 2.9
O=C(c1ccc(=O)[nH]n1)N1CCN(S(=O)(=O)c2ccccc2F)CC1 | -1.8
CNc1nnc(SCC(=O)c2cc(C)n(C3CC3)c2C)s1 | 3.2
O=C(CSc1nnc(-c2ccncc2)o1)Nc1cccc(Cl)c1 | 1.9
O=C(Cc1cccc(NC(=O)C2CCN(C(=O)C3CC3)CC2)c1)Nc1cccc(C(=O)N2CCCC2)c1 | 3.8
Cc1cc(C(=O)COC(=O)Cc2ccc(Br)cc2)c(C)n1C | -2.3
CCN(CC1COc2ccccc2O1)C(=O)CN1C(=O)NC(C)(c2ccccc2)C1=O (stereo not drawn) | -6.8
O=C(CSc1nc2ccccc2c(=O)n1-c1ccc(OC(F)F)cc1)NC1CC1 | 6.4
CCN(CC(=O)NCc1cccs1)CC(=O)Nc1c(Cl)ccc(C)c1Cl | 0.9
CC(C)(C)OC(=O)N[C@@H](C(=O)OC(C)(C)C)c1ccccc1 | 8.7
Cc1cccc(NC(=O)CNC(=O)Cc2ccc(S(=O)(=O)N3CCOCC3)s2)c1C | 4.0

Structural class: the compounds so far containing four or more nitrogen atoms
Structure | Mtb bLac sens
Cc1nn(Cc2ccccc2)c(C)c1CNC(=O)[C@H](C)N=C1NS(=O)(=O)c2ccccc21 | 11.3
O=C(c1ccc(=O)[nH]n1)N1CCN(S(=O)(=O)c2ccccc2F)CC1 | -1.8
CNc1nnc(SCC(=O)c2cc(C)n(C3CC3)c2C)s1 | 3.2
O=C(CSc1nnc(-c2ccncc2)o1)Nc1cccc(Cl)c1 | 1.9
O=C(Cc1cccc(NC(=O)C2CCN(C(=O)C3CC3)CC2)c1)Nc1cccc(C(=O)N2CCCC2)c1 | 3.8

(more compounds)
Structure | Mtb bLac sens
O=C(NCCc1ccccn1)c1nc(Cn2cc(Br)cn2)no1 | 3.2
O=C(CN1c2cccc3cccc(c23)S1(=O)=O)NCCc1ccc(F)cc1 | -0.4
CCN(CC)S(=O)(=O)c1ccc(NC(=O)c2ccc(OCC3CCCO3)cc2)cc1 (stereo not drawn) | ?
COc1ccccc1NS(=O)(=O)c1ccc(C)c(C(=O)NCC2(N(C)C)CCCCC2)c1 | -2.3
CCCC[C@@H]1C=C(C(=O)O)[C@H](c2ccc(CC)cc2)N1S(=O)(=O)c1ccc(C)cc1 | 0.0
C[C@@H]1CN([C@H](C)CO)C(=O)c2cc(NC(=O)Nc3cccc4ccccc34)ccc2O[C@H]1CN(C)Cc1ccc(C(F)(F)F)cc1 | -2.1
Cn1c(SCC(=O)Nc2nccs2)nnc1-c1cccnc1 | 5.0
O=S(=O)(c1cccs1)N1CCN(c2ccc(Cl)cc2)CC1 | 2.0
C[C@]12CCC(=O)C=C1CCC1C2CC[C@@]2(C)C1CC[C@@H]2O (stereo partly drawn) | -1.5
Cc1ccc(S(=O)(=O)N2CCCN(C(C)c3nc4ccccc4c(=O)[nH]3)CC2)cc1 (stereo not drawn) | -2.3
O=[N+]([O-])c1cccc(S(=O)(=O)/N=C(/Nc2ccccc2)c2ccccc2)c1 | 0.5
Cc1ccc(Sc2ccc(NC(=O)CCN3C(=O)NC4(CCCC4)C3=O)cc2)c(C)c1 | 42.5
CCOc1ccc(OCCNC(=O)C(NC(=O)c2c(F)cccc2F)C(C)C)cc1 (stereo not drawn) | 3.9
COc1ccccc1CNC(=O)COc1ccccc1C(=O)c1cnn(-c2ccccc2)c1 | -4.3
O=C(c1ccccc1-c1ncc[nH]1)N1CCCC(Nc2ccc(F)cc2)C1 (stereo not drawn) | ?
CCOC(=O)N1CCN(C(=O)CCNS(=O)(=O)c2ccc(C)c(C)c2)CC1 | 0.9
COCCN(C(=O)C1=COCCO1)c1c(N)n(CC(C)C)c(=O)[nH]c1=O | -4.4
CCOc1ccc(NC(=O)c2ccccc2NC(=O)CNC2CCCC(C)C2C)cc1 (stereo not drawn) | -1.9
Cc1ccc(OCCC(=O)OCC(=O)N2CC(=O)Nc3ccccc32)cc1 | -2.6
COc1cc(CCC(=O)Nc2ccc(S(=O)(=O)N3CCOCC3)cc2)cc(OC)c1OC | -2.3
C[C@H](CO)N1C[C@H](C)[C@H](CN(C)C)Oc2ccc(NS(=O)(=O)c3ccc(F)cc3)cc2CC1=O | 4.3
Cc1ccc(Oc2ccc(NC(=O)C3=CC=CN4CCS(=O)(=O)N=C34)cc2)cc1 | -0.8
COc1cc(C(=O)NCc2ccc(OCCN(C)C)cc2)cc(OC)c1OC | -1.1
COc1cccc(S(=O)(=O)NCc2ccc(C(=O)N3CCN(Cc4ccccc4)CC3)cc2)c1 | 4.7
O=C(CSc1nnc(NC2CC2)s1)NN1C(=O)NC2(CCCCC2)C1=O | -13.5
Cc1ccc(NC(=O)Cn2cnc3c(OCc4ccccc4)ncnc32)cc1C | 1.0
CCC(CO)Oc1cc(NCc2ccc(F)cc2)c2ncn(C(C)C)c2c1 (stereo not drawn) | -2.7
O=C(COC(=O)C1CCC(=O)N1)Nc1cccc([N+](=O)[O-])c1 (stereo not drawn) | 3.4
COc1ccc(N(Cc2cc(=O)[nH]c3ccccc23)C(=O)CCl)cc1 | 61.4
COC(=O)CCC[C@H]1CC2(C[C@H](CCCO[Si](C)(C)C(C)(C)C)N1C(=O)OC(C)(C)C)OCCO2 | -8.7
Cc1cc(C(=O)O)ccc1[N+](=O)[O-] | -2.9
CC1CCCC(C)N1C(=O)COC(=O)CCC(=O)c1cccs1 (stereo not drawn) | -3.6
O=C(COC(=O)c1cccc(S(=O)(=O)N2CCOCC2)c1)c1ccccc1 | -7.4
CCNC(=O)N(CC)C[C@H]1N[C@@](Cc2ccccc2)(C(=O)OC)[C@H]2C(=O)N(C)C(=O)[C@@H]12 | 1.1
Cc1nc(SCC(=O)N2CCOCC2)c2c3c(sc2n1)CCC3 | -3.3
Cc1ccc(S(=O)(=O)N2[C@@H](c3ccc(F)cc3)C(C(=O)O)=CC[C@H]2c2cccs2)cc1 | -5.3
Cc1noc(C)c1COc1ccc(C(=O)N2CCN(S(=O)(=O)c3ccccc3)CC2)cc1 | -10.1
Cn1c(N)c(C(=O)CSc2nn(-c3ccc(F)cc3)c(=S)s2)c(=O)n(C)c1=O | -6.2
Cc1cc(C(=O)NNS(=O)(=O)c2cc(C(=O)O)ccc2Cl)c(C)n1-c1ccccc1 | 9.6
CCOC(=O)c1sc2ncnc(Nc3cccc(C(=O)O)c3)c2c1C | -2.0
CC1(C)C(=O)Nc2ccccc2N1C(=O)COC(=O)c1cc(Cl)cc(Cl)c1 | -2.1
Oc1ccccc1-c1ccn[nH]1 | -0.5
Cc1ccc(CONC(=O)c2cccc(C)c2)cc1 | -4.0
O=C(Cn1cc([N+](=O)[O-])ccc1=O)NC1CCCCC1 | -6.6
Cc1ccc(C)c(OCC(=O)NCC2COc3ccccc3O2)c1 (stereo not drawn) | -0.8
CCC1(CC)C(=O)C=CNC1=O | -2.1
Cc1cc(C)cc(-n2ncc3c2CCCC3NC(=O)c2cc(C)[nH]n2)c1 (stereo not drawn) | -6.2
Cc1cccnc1NC(=O)CSc1ccc2c(c1)OCCO2 | -1.1
N#CCCN(C(=O)COC(=O)C1CCN(S(=O)(=O)c2ccc3c(c2)OCCO3)CC1)c1ccccc1 | -1.7
COc1cc(/C=C/C(=O)OCC(=O)NCc2ccc3c(c2)OCO3)cc(OC)c1OC | 6.6
CN(C)S(=O)(=O)c1cccc(C(=O)OCC(=O)Nc2ccc3c(c2)OCCO3)c1 | 14.6
O=C(CCC1CCCC1)N1CCN(S(=O)(=O)c2ccc(Br)cc2)CC1 | 2.6
CCc1nc(SCC(=O)Nc2ccc(Br)cn2)n[nH]1 | ?
CC(=O)Nc1ccc(SCCN2CC[C@@H](O)CCC2=O)cc1 | -3.3
CCCCn1c(N)c(N(CC(C)C)C(=O)CSCC(=O)Nc2cccc(C)c2)c(=O)[nH]c1=O | -0.7
CC(C)(C)C(=O)NCc1ccc(C(=O)CSc2nnc(C3CC3)n2C2CC2)s1 | -5.5
COC(=O)C1=C(c2ccc(C(C)=O)cc2)C[C@@H]2CC[C@H]1N2C(=O)N1CCCC1 | 0.7
CCOC(=O)N1CCN(C2CCCN(C(=O)c3ccccc3N(C)C)C2)CC1 (stereo not drawn) | ?
COc1ccccc1NC(=O)COC(=O)c1cc(C)nc2ccccc12 | 0.5
COc1cc(CN2CCCC(CO)(Cc3ccccc3)C2)ccc1O (stereo not drawn) | 4.3

(next part)
structure	Mtb bLac sens
COc1ccc(CNC(=O)COC(=O)CN2C(=O)NC3(CCCC3)C2=O)cc1	-5.6
CCOc1ccc(NC(=O)C2CC(=O)N(Cc3ccco3)C2)cc1 (stereo not drawn)	-4.1
Fc1ccc2cnc(-c3cccnc3)cc2c1	-8.7
CCc1ccc(S(=O)(=O)NCC2(N3CCOCC3)CCCCC2)cc1	-8.6
Cc1cc(C(=O)N2CCN(S(=O)(=O)c3ccc(F)c(Cl)c3)CC2)c(C)o1	5.6
NC(=O)c1ccsc1NC(=O)CN1C(=O)NC2(CCCCC2)C1=O	-9.2
Cc1nc(C)c(C(=O)OCC(=O)NCc2ccccc2Cl)s1	-2.7
COc1ccc(C(=O)OCC(=O)c2c[nH]c3ccccc23)c(OC)c1	-9.2
COc1ccccc1C(=O)Nc1ccc(OCC(=O)N2C(C)CCCC2C)cc1 (stereo not drawn)	-7.0
CCN(CC)C(=O)COC(=O)C1=NN(c2cc(C)ccc2C)C(=O)CC1	-6.0
O=C(NCCCN1CCOCC1)C(=O)c1c[nH]c2ccccc12	-4.6
N#CCCN(C(=O)COC(=O)COc1ccccc1Cc1ccccc1)c1ccccc1	1.0
CC(C(=O)Nc1cc(C(F)(F)F)ccc1N1CCOCC1)N1C(=O)C2CCCCC2C1=O (stereo not drawn)	-7.8
CC(=O)c1cccc(NC(=O)C(C)OC(=O)c2ccc3ncsc3c2)c1 (stereo not drawn)	-8.2
Oc1ccc(Cl)cc1CNCc1ccc(Cl)nc1	-0.9
C[C@@H]1O[C@@H](OCCC(=O)O)[C@H](O)C[C@H]1O	-14.2
COc1cccc(NC(=O)COC(=O)CNC(=O)C2CCCCC2)c1	-5.3
O=C(COC(=O)c1n[nH]c2ccccc12)NCCc1ccc(Cl)cc1	-4.1
O=C(Cn1[nH]c(=O)c2ccccc2c1=O)OCC(=O)c1ccc(F)c(F)c1	3.1
CCN(CC)C(=O)c1nc[nH]c1C(=O)O[C@@H](C)c1ccccc1	-5.6

Reprinted at random: 2 compounds from above.
structure	Mtb bLac sens
O=C(CN1c2cccc3cccc(c23)S1(=O)=O)NCCc1ccc(F)cc1	-0.4
COCCN(C(=O)C1=COCCO1)c1c(N)n(CC(C)C)c(=O)[nH]c1=O	-4.4

New compounds follow:
structure	Mtb bLac sens
COc1ccc(N2CCN(C(=O)c3cccc(S(=O)(=O)N4CCc5ccccc54)c3)CC2)cc1	62.6
C[C@@H](C(=O)Nc1ccc(SC(F)F)cc1)N1C(=O)C2CCCCC2C1=O (stereo partly drawn)	95.3
C[C@H](CO)N1C[C@H](C)[C@@H](CN(C)S(C)(=O)=O)Oc2c(NC(=O)C3CC3)cccc2C1=O	-0.7
Clc1cccc(-c2nc(-c3ccc(-c4nn[nH]n4)cc3)no2)c1	-7.8
O=C(Nc1ccc2c(c1)OCO2)c1cc(Cl)ccn1	-1.4
CC(OC(=O)/C(C#N)=C/c1ccco1)C(=O)N(C)c1ccccc1 (stereo not drawn)	-5.8
Nc1ncnc2c1ncn2[C@@H]1O[C@H](CNCc2ccc(OCC(=O)Nc3ccccn3)cc2)[C@@H](O)[C@H]1O	-2.2
OCC[C@H]1C[C@@H](O)[C@H](O)[C@@]2(Cc3ccccc3O2)O1	-0.1
COc1ccc(NC(=O)Nc2cccc3c2O[C@H](CN(C)S(=O)(=O)c2cn(C)cn2)[C@@H](C)CN([C@H](C)CO)C3=O)cc1	7.5
CC(=O)N1N=C(c2cccc(NS(C)(=O)=O)c2)CC1c1ccc2c(c1)OCO2 (stereo not drawn)	0.3
C=C1C(=O)O[C@@H]2[C@H]3O[C@]3(C)CC/C=C(\C)CC[C@@H]12	16.6
CN(C)C(CNS(=O)(=O)c1cc([N+](=O)[O-])ccc1Cl)c1ccco1 (stereo not drawn)	1.0
CC1(c2cccc(Br)c2)NC(=O)N(CC(=O)c2ccc3c(c2)OCCO3)C1=O (stereo not drawn)	4.1
CCCn1c(=O)c(C(=O)NCc2ccccc2)c(O)c2ccccc21	-11.2
COC(=O)c1ccccc1NC(=O)COC(=O)/C=C/c1cccs1	5.8
COC(=O)C1=C(c2ccc(F)cc2OCc2ccccc2)C[C@@H]2CC[C@H]1N2C(=O)NCc1ccc(Cl)cc1	6.5
O=C(COC(=O)CCC(=O)c1ccc(F)cc1)NCc1ccccc1Cl	-2.6
O=C(NNC(=O)C1CCCC1)c1cc([N+](=O)[O-])cc([N+](=O)[O-])c1	99.9
CCN(C(=O)c1c(C)noc1C)c1c(N)n(Cc2ccccc2)c(=O)[nH]c1=O	-5.3
Cn1cnnc1SCC(=O)Nc1ncc([N+](=O)[O-])s1	-4.1
Cc1cc(C(=O)NNC(=O)c2ccccc2O)c(C)o1	-2.3
O=C(N=C1SC2CS(=O)(=O)CC2N1c1ccccc1)c1ccccc1 (stereo not drawn)	2.4
COC(=O)C1=C(c2ccc(OC)c(OC)c2)C[C@@H]2CC[C@H]1N2C(=O)N1CCC(O)CC1	-6.8
O=C(COC(=O)c1ccccn1)NCCc1ccc(Cl)cc1	0.5

Some of the compounds tested; the hit share may differ from the screen's.
